# Env fusion inh: HIV envelope-mediated fusion inhibition; inhibition, % at 12.3 µM; HeLa-JRFL Env/CEM21 cell fusion, luciferase; 360,000 tested, 1.1% active;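 active means mean replicate inhibition score of at least 50 and every replicate individually at or above 50; inconclusive means only one of the two criteria met; inactive means mean below 50 and not all replicates reaching 50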;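 further: 0% = plate neutral controls and 100% = maraviroc near 300 nM; one replicate is shown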
# UUG fidelity: modulators of start codon recognition fidelity in yeast; AID 602363; activity score, % at 18.7 µM; 350,000 tested, 0.13% active; S. cerevisiae UUG-firefly luciferase reporter, luminescence/redox ratio;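 active means replicate mean at a twofold rise or more, about +100% in these data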;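 further: firefly luciferase made from a UUG start codon reports start codon fidelity; reporter light over untreated wells divided by growth signal over untreated wells; some hits fall short of that in this replicate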
# * hit, by the source's call; ? = inconclusive; [ ] = dose if it differs, or a comment.
SMILES,Env fusion inh,UUG fidelity
CC(C)NC(=O)N(C)C[C@@H]1OCCCC[C@@H](C)Oc2ccc(NC(=O)NC3CCCCC3)cc2C(=O)N([C@@H](C)CO)C[C@H]1C,-10[16.7 µM],1
C[C@@H]1CCCCO[C@H](CN(C)Cc2ccc3c(c2)OCO3)[C@@H](C)CN([C@@H](C)CO)C(=O)c2cc(NS(C)(=O)=O)ccc2O1,-20[16.7 µM],13
C[C@H]1CN([C@@H](C)CO)C(=O)c2cc(-c3cccc(F)c3)cnc2O[C@@H]1CN(C)Cc1cncnc1,-17[16.7 µM],-5
CN1CCN(C(=O)C[C@@H]2CC[C@H](NS(=O)(=O)c3cccc(F)c3)[C@@H](CO)O2)CC1,-6[16.7 µM],-15
O=C(Nc1ccc2c(c1)[C@@H]1C[C@H](CC(=O)N3CCc4ccccc4C3)O[C@@H](CO)[C@@H]1O2)C1CCC1,7[16.7 µM],4
O=C(C[C@H]1CC[C@H](NC(=O)NC2CCCCC2)[C@H](CO)O1)NCc1ccccc1,9[16.7 µM],-14
O=C(C[C@@H]1CC[C@@H](NC(=O)c2cnccn2)[C@H](CO)O1)NCc1ccccc1F,10[16.7 µM],-6
COc1cccc(S(=O)(=O)N[C@H]2C=C[C@@H](CC(=O)NCc3ccc(F)cc3)O[C@@H]2CO)c1,-8[16.7 µM],-7
Cc1noc(C)c1NC(=O)Nc1ccc2c(c1)C(=O)N([C@H](C)CO)C[C@H](C)[C@H](CN(C)CC1CCCCC1)O2,-10[16.7 µM],19
COCC#Cc1cnc2c(c1)C(=O)N([C@@H](C)CO)C[C@H](C)[C@@H](CN(C)C(=O)CCN1CCCCC1)O2,-9[16.7 µM],10
C[C@H](O)C#Cc1ccc2c(c1)O[C@@H](CN(C)C(=O)c1ccncc1)[C@H](C)CN([C@@H](C)CO)S2(=O)=O,-13[16.7 µM],-5
COCC#Cc1cnc2c(c1)C(=O)N([C@H](C)CO)C[C@@H](C)[C@@H](CN(C)C(=O)NC1CCCC1)O2,-27[16.7 µM],34
C[C@@H]1CCCCO[C@H](CN(C)Cc2ccncc2)[C@@H](C)CN([C@H](C)CO)C(=O)c2cc(NC(=O)c3ccccc3)ccc2O1,1[16.7 µM],-6
O=C(Cc1ccccn1)NCC[C@@H]1CC[C@@H](NC(=O)Nc2ccccc2)[C@@H](CO)O1,-7[16.7 µM],18
C[C@H](CO)N1C[C@H](C)[C@@H](CN(C)C(=O)NC2CCCCC2)Oc2c(NC(=O)C3CCOCC3)cccc2C1=O,21[16.7 µM],-13
CCCNC(=O)N(C)C[C@H]1Oc2ncc(-c3ccc(C(=O)N(C)C)cc3)cc2C(=O)N([C@H](C)CO)C[C@@H]1C,-19[16.7 µM],13
CCCC#Cc1ccc2c(c1)O[C@@H](CN(C)C(=O)c1ccccn1)[C@H](C)CN([C@@H](C)CO)S2(=O)=O,27[16.7 µM],13
COc1ccc(NC(=O)Nc2ccc3c(c2)CC(=O)N([C@H](C)CO)C[C@H](C)[C@@H](CN(C)CC2CCCCC2)O3)cc1,-6[16.7 µM],-1
CCCN1C[C@H](C)[C@H](OC)CN(C)C(=O)c2ccc(NC(=O)Nc3c(C)noc3C)cc2OC[C@H]1C,-21[16.7 µM],-3
Cc1noc(C)c1S(=O)(=O)Nc1ccc2c(c1)C(=O)N([C@H](C)CO)C[C@H](C)[C@H](CN(C)Cc1ccc3c(c1)OCO3)OCCCC[C@H](C)O2,-17[16.7 µM],8
CCCC#Cc1cnc2c(c1)C(=O)N([C@@H](C)CO)C[C@H](C)[C@H](CN(C)Cc1ccc3c(c1)OCO3)O2,-6[16.7 µM],-4
Cc1cc(C(=O)Nc2cccc3c2O[C@H](CN(C)Cc2ccc(Oc4ccccc4)cc2)[C@H](C)CN([C@@H](C)CO)C3=O)n(C)n1,-26[16.7 µM],15
CC(C)C#Cc1cnc2c(c1)C(=O)N([C@H](C)CO)C[C@@H](C)[C@H](CN(C)C(=O)Cc1ccncc1)O2,-34[16.7 µM],-5
CCCC#Cc1ccc2c(c1)O[C@@H](CN(C)C(=O)C1CC1)[C@H](C)CN([C@@H](C)CO)S2(=O)=O,14[16.7 µM],14
C[C@H](CO)N1C[C@H](C)[C@H](CN(C)CC2CCCCC2)Oc2ccc(NC(=O)Cn3cnnn3)cc2CC1=O,2[16.7 µM],-12

# Looked up above.
# In Env fusion inh, CC(C)NC(=O)N(C)C[C@@H]1OCCCC[C@@H](C)Oc2ccc(NC(=O)NC3CCCCC3)cc2C(=O)N([C@@H](C)CO)C[C@H]1C has -10[16.7 µM]
# In Env fusion inh, C[C@H](CO)N1C[C@H](C)[C@@H](CN(C)C(=O)NC2CCCCC2)Oc2c(NC(=O)C3CCOCC3)cccc2C1=O has 21[16.7 µM]

# (more compounds)
SMILES,Env fusion inh,UUG fidelity
C[C@@H]1CCCCO[C@@H](CN(C)C(=O)NC2CCCCC2)[C@@H](C)CN([C@H](C)CO)C(=O)c2cc(NS(=O)(=O)c3ccc(F)cc3)ccc2O1,-16[16.7 µM],22
COc1ccc(NC(=O)Nc2ccc3c(c2)CC(=O)N([C@@H](C)CO)C[C@H](C)[C@@H](CN(C)C(=O)NC(C)C)O3)cc1,3[16.7 µM],33
CCNC(=O)C[C@@H]1CC[C@@H]2[C@H](COC[C@@H](O)CN2Cc2ccncc2)O1,-11[16.7 µM],-15
CO[C@@H]1CN(C)C(=O)c2cc(NC(=O)C3CC3)ccc2OC[C@@H](C)N(C(=O)c2ccncc2)C[C@@H]1C,-9[16.7 µM],-13
CO[C@@H]1CN(C)C(=O)c2cc(NC(=O)Nc3cccc(F)c3)ccc2OC[C@@H](C)N(C(C)=O)C[C@H]1C,21[16.7 µM],7
Cc1ccc(S(=O)(=O)N(C)C[C@H]2Oc3ncc(C#CCC(C)C)cc3C(=O)N([C@@H](C)CO)C[C@@H]2C)cc1,2[16.7 µM],-8
COc1ccc(CN(C)C[C@@H]2Oc3c(NC(=O)Nc4ccccc4)cccc3C(=O)N([C@@H](C)CO)C[C@@H]2C)cc1,11[16.7 µM],-14
C[C@H](CO)N1C[C@H](C)[C@H](CN(C)C(=O)c2ccncc2)Oc2cc(C#C[C@@H](C)O)ccc2S1(=O)=O,?,-2
C[C@@H]1CN([C@H](C)CO)C(=O)c2cc(NC(=O)Nc3ccc(F)cc3)ccc2O[C@@H]1CN(C)C(=O)Nc1ccc(F)cc1,1[16.7 µM],9
CCCC#Cc1cnc2c(c1)C(=O)N([C@H](C)CO)C[C@H](C)[C@H](CN(C)C(=O)Cc1cccnc1)O2,-5[16.7 µM],-1
C[C@@H]1CN([C@@H](C)CO)C(=O)CCCn2nncc2CO[C@H]1CN(C)Cc1ccc(O)cc1,-8,0
CNC[C@@H]1Oc2ccc(NC(=O)Nc3ccc(C(F)(F)F)cc3)cc2CC(=O)N([C@@H](C)CO)C[C@@H]1C,6[16.7 µM],11
O=C(O)C[C@H]1C=C[C@@H](NC(=O)Nc2cc(F)ccc2F)[C@H](CO)O1,-17[16.7 µM],-11
CNC(=O)C[C@H]1CC[C@H]2[C@H](COc3ccc(NC(=O)Cc4cccs4)cc3C(=O)N2C)O1,5[16.7 µM],1
C[C@H](CO)N1C[C@H](C)[C@@H](CN(C)Cc2ccc(Cl)c(Cl)c2)Oc2c(NC(=O)Nc3ccccc3)cccc2C1=O,49[16.7 µM],15
C[C@H]1CN([C@@H](C)CO)C(=O)Cc2cc(NC(=O)C3CCCCC3)ccc2O[C@H]1CN(C)Cc1ccc(Cl)c(Cl)c1,-3[16.7 µM],-2
C[C@@H]1CCCCO[C@H](CN(C)S(=O)(=O)c2ccc(F)cc2)[C@H](C)CN([C@@H](C)CO)C(=O)c2cc(NC(=O)NC3CCCCC3)ccc2O1,2[16.7 µM],-11
Cc1noc(C)c1NC(=O)N(C)C[C@@H]1Oc2ccc(NC(=O)Nc3ccccc3)cc2C(=O)N([C@@H](C)CO)C[C@@H]1C,19[16.7 µM],63
C[C@@H](NC(=O)C[C@H]1CC[C@H]2[C@@H](COC[C@@H](O)CN2C)O1)c1ccccc1,-5[16.7 µM],-14
C[C@H]1CN([C@@H](C)CO)C(=O)c2cccc(NC(=O)C3CCCCC3)c2O[C@@H]1CN(C)S(=O)(=O)c1cccs1,3[16.7 µM],0
CCCN(C)C[C@H]1Oc2cc(C#Cc3cccnc3)ccc2S(=O)(=O)N([C@H](C)CO)C[C@@H]1C,26[16.7 µM],6
C[C@H](CO)N1C[C@H](C)[C@@H](CN(C)Cc2ccc(Cl)c(Cl)c2)Oc2c(NS(=O)(=O)c3ccc(Cl)cc3)cccc2C1=O,?,6
N#CC1(Nc2ccc3c4c(cccc24)CC3)CCCCC1,17,1
C[C@H]1CN([C@@H](C)CO)S(=O)(=O)c2ccc(-c3cccnc3)cc2O[C@@H]1CN(C)Cc1ccncc1,-8[16.7 µM],-15
C[C@H](CO)N1C[C@H](C)[C@@H](CN(C)C(=O)Nc2ccccc2)Oc2ccc(NC(=O)Nc3ccc(C(F)(F)F)cc3)cc2CC1=O,-1[16.7 µM],6
# The list goes on.
SMILES,Env fusion inh,UUG fidelity
C[C@H]1CN([C@@H](C)CO)C(=O)Cc2cc(NC(=O)CCC(F)(F)F)ccc2O[C@@H]1CN(C)C(=O)Nc1ccccc1,-1[16.7 µM],-3
O=C(N[C@H]1CC[C@@H](CCNS(=O)(=O)c2ccccc2)O[C@H]1CO)c1cccc(F)c1,3[16.7 µM],49
C[C@@H]1CCCCO[C@@H](CN(C)S(=O)(=O)c2ccccc2)[C@H](C)CN([C@@H](C)CO)C(=O)c2cc(NC(=O)NC3CCCCC3)ccc2O1,3[16.7 µM],0
CC(C)CC#Cc1cnc2c(c1)C(=O)N([C@@H](C)CO)C[C@H](C)[C@H](CN(C)Cc1ccccn1)O2,-6[16.7 µM],-11
O=S(=O)(NC1CCN(Cc2ccc(OCCO)cc2)CC1)c1cc(Cl)ccc1Cl,-2[16.7 µM],3
COC(=O)C[C@H]1CC[C@@H](NC(=O)c2ccccc2)[C@H](CO)O1,?,-13
COCC(=O)N(C)C[C@H]1Oc2ncc(C3=CCCCC3)cc2C(=O)N([C@@H](C)CO)C[C@@H]1C,-2[16.7 µM],8
C[C@H](CO)N1C[C@H](C)[C@@H](CN(C)S(=O)(=O)c2cccs2)Oc2c(NC(=O)c3nc4ccccc4s3)cccc2C1=O,1[16.7 µM],7
C[C@@H]1CN([C@@H](C)CO)C(=O)Cc2cc(NS(=O)(=O)c3cccs3)ccc2O[C@H]1CN(C)S(=O)(=O)c1ccc(F)cc1,-16[16.7 µM],-11
C[C@@H]1CN([C@H](C)CO)S(=O)(=O)c2ccc(C#CC3(O)CCCC3)cc2O[C@H]1CN(C)C(=O)c1ccncc1,10[16.7 µM],-6
O=C(C[C@H]1C=C[C@@H](NC(=O)Nc2ccc(C(F)(F)F)cc2)[C@H](CO)O1)NCc1ccccn1,-7[16.7 µM],13
CCC(=O)Nc1ccc2c(c1)C(=O)N(C)[C@@H]1CC[C@H](CC(=O)NCC3CC3)O[C@H]1CO2,-8[16.7 µM],7
C[C@H](CO)N1C[C@H](C)[C@H](CN(C)C(=O)c2ccccn2)Oc2ncc(-c3cccc(F)c3)cc2C1=O,-15[16.7 µM],7
C[C@H](NC(=O)C[C@H]1CC[C@@H](NC(=O)Nc2ccc3c(c2)OCO3)[C@H](CO)O1)c1ccccc1,-19[16.7 µM],-12
C[C@@H]1CN([C@H](C)CO)C(=O)Cc2cc(NC(=O)Cc3ccccc3)ccc2O[C@@H]1CN(C)C(=O)Nc1ccc2c(c1)OCO2,13[16.7 µM],15
COC(=O)[C@]1(CO)N=C(c2ccc(OCCCO)cc2)O[C@@H]1c1ccccc1CN=[N+]=[N-],1[16.7 µM],-3
C[C@@H]1CN([C@H](C)CO)C(=O)c2cccc(N(C)C)c2O[C@H]1CN(C)Cc1ccc(Cl)c(Cl)c1,10[16.7 µM],1
Cc1noc(C)c1NC(=O)Nc1ccc2c(c1)CC(=O)N([C@@H](C)CO)C[C@H](C)[C@H](CN(C)Cc1ccc(Oc3ccccc3)cc1)O2,-53[16.7 µM],3
COCC(=O)Nc1ccc2c(c1)C(=O)N(C)[C@@H]1CC[C@@H](CC(=O)NCCc3ccccc3)O[C@@H]1CO2,-6[16.7 µM],1
CN(C)C(=O)C[C@@H]1CC[C@H]2[C@@H](COc3ccc(NC(=O)C4CCCCC4)cc3C(=O)N2C)O1,-11[16.7 µM],4
CN(C)CCCNC(=O)C[C@H]1C=C[C@H](NS(=O)(=O)c2ccccc2)[C@@H](CO)O1,19[16.7 µM],-7
C[C@@H]1CCCCO[C@@H](CN(C)S(C)(=O)=O)[C@@H](C)CN([C@H](C)CO)C(=O)c2cc(NC(=O)Cc3ccccc3)ccc2O1,23[16.7 µM],-17
CNC[C@H]1OCCCC[C@@H](C)Oc2ccc(NC(=O)c3ccccc3)cc2C(=O)N([C@@H](C)CO)C[C@H]1C,11[16.7 µM],2
O=C(N[C@H]1CC[C@H](CCn2cc(-c3ccccn3)nn2)O[C@@H]1CO)c1ccccc1,-2[16.7 µM],-9

# Some of the entries so far, field by field:
CNC[C@H]1OCCCC[C@@H](C)Oc2ccc(NC(=O)c3ccccc3)cc2C(=O)N([C@@H](C)CO)C[C@H]1C
  Env fusion inh = 11[16.7 µM] | UUG fidelity = 2
COCC(=O)N(C)C[C@H]1Oc2ncc(C3=CCCCC3)cc2C(=O)N([C@@H](C)CO)C[C@@H]1C
  Env fusion inh = -2[16.7 µM] | UUG fidelity = 8
CC(C)CC#Cc1cnc2c(c1)C(=O)N([C@@H](C)CO)C[C@H](C)[C@H](CN(C)Cc1ccccn1)O2
  Env fusion inh = -6[16.7 µM] | UUG fidelity = -11
C[C@H]1CN([C@@H](C)CO)C(=O)Cc2cc(NC(=O)CCC(F)(F)F)ccc2O[C@@H]1CN(C)C(=O)Nc1ccccc1
  Env fusion inh = -1[16.7 µM] | UUG fidelity = -3

# From PubChem BioAssay

# Only part of the results is shown; the hit share may differ from the screen's.
